Screening data deposited in PubChem BioAssay by Southern Research Institute.
Mtb H37Rv – Mycobacterium tuberculosis H37Rv growth inhibition, cell based, confirmatory dose response (AID 1949). M. tuberculosis H37Rv growth inhibition. most inactive calls were filed without a number and no value below 0 was filed. one-dose inhibition, % at 10 µg/mL; IC50 in µg/mL for titrated hits. hit rate 1.6% among 100,000;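 active means confirmed in a dose series; inconclusive means about 50% or more but not retested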;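 further: bacteria grown 7 days with compound before Alamar blue readout; 0% = untreated bacteria and 100% = reference antibiotic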
Numbers without * were called inactive; i = inactive; ? = inconclusive.

SMILES	Mtb H37Rv
O=C(O)c1cccc(Nc2ccncc2[N+](=O)[O-])c1	i
COc1cccc(NC(=O)CN(c2ccc(I)cc2)S(C)(=O)=O)c1	i
c1ccc(-c2ccccc2OCCOCCN2CCCCC2)cc1	i
CCc1cc(=O)oc2c(C)c(OCC(=O)N3CCCc4ccccc43)ccc12	i
Cc1ccc(NC(=O)Cn2cnc3sc4c(c3c2=O)CCCC4)cc1	i
CCCCOc1ccc(C(=O)NC(=S)N2CCN(c3c(F)c(F)c(F)c(F)c3F)CC2)cc1	i
CCCCN1CCc2c([nH]c3ccc(C)cc23)C1=O	2%
COc1ccccc1NC(=S)NCCN(C)C	i
CCCc1cc(=O)[nH]c(/N=C(/NC(=O)C(C)N2C(=O)c3ccccc3C2=O)Nc2ccccc2)n1 (centres undefined)	i
O=C(/C=C/c1ccccc1)Nc1cc(Cl)c(Cl)cc1Cl	1%
COc1cc(C(=O)Nc2ccc(-c3cn4ccccc4n3)cc2)cc(OC)c1OC	i
Cc1cc(OCC(=O)O/N=C(\N)c2ccccc2Cl)cc(C)c1Br	2%
Fc1cccc(NC(=S)NCCc2ccccc2)c1	32%
COC(=O)c1ccc(C(=O)OC)c(NC(=O)CN(c2ccc(Cl)c(Cl)c2)S(C)(=O)=O)c1	i
COc1ccc(NC(=O)COc2ccc(S(=O)(=O)NC(C)(C)C)cc2)cc1OC	i
Cc1nnc(SCc2ccccc2Cl)[nH]c1=O	i
Cc1cccc(NC2C=CS(=O)(=O)C2)c1C (centres undefined)	i
COc1ccc(OC2C(=O)N(c3cc(C)ccc3C)C2c2ccc(OC)c(OC)c2)cc1 (centres undefined)	i
COc1cccc(C2C(C(=O)Nc3cc(C)ccn3)=C(C)NC3=C2C(=O)CCC3)c1 (centres undefined)	i
C=CCn1c(CC(=O)O)nnc1-c1ccco1	i
O=C(CSc1nc2sc3c(c2c(=O)[nH]1)CCCC3)N1CCCCC1	i
CSc1nnc2c(n1)[nH]c1ccc(Cl)cc12	i
Cc1ccc2cccc(S(=O)(=O)n3nc(C)cc3C)c2n1	i
Cc1ccnc(Nc2nc(-c3ccc(F)c(C)c3)cs2)c1	?
COc1ccc(C(NC(=O)c2c(F)c(F)c(F)c(F)c2F)c2ccccc2)cc1 (centres undefined)	i
O=C(NCc1cccnc1)c1ccc(CN2CCc3ccccc3C2)cc1	i
O=C(Nc1ccc(F)cc1F)c1ccc(COc2c(F)c(F)cc(F)c2F)o1	i
COc1ccc(C(=O)Nc2ccc(S(=O)(=O)N3CCCCC3C)cc2)c(OC)c1OC (centres undefined)	i
Cc1ccc(C2CC(=O)C3=C(C2)Nc2ccccc2NC3c2ccc(C)o2)cc1 (centres undefined)	3%
Cc1cccc(CSc2nc3c(c(C(F)(F)F)c2C#N)CCC3)c1	2%
FC(F)(F)c1cccc(N2CCN(C(=S)NC3CCCC3)CC2)c1	i
COc1ccc(C(=O)c2sc3nc(C)cc(C)c3c2N)cc1OC	2%
COc1cc(S(=O)(=O)N2CCN(c3cc(C)ccc3C)CC2)c(OC)cc1Cl	i
CCOc1cccc(OCCOc2ccccc2)c1	5%
CCCc1cc(=O)[nH]c(SCC(=O)NC2CCCCCC2)n1	i
Cc1cc(=O)cc(C)n1-c1ccccc1Br	i
CC(=O)Nc1ccc(S(=O)(=O)n2nc(C)c(C)c2C)cc1	i
C=CCOc1cccc(C2C(C(=O)c3cc4cccc(OC)c4o3)=C(O)C(=O)N2Cc2ccco2)c1 (centres undefined)	i
Cc1scc(C(=O)N2CCCCCC2)c1-c1ccccc1	i
CCC1(C)CC(CCN2C(=O)c3ccccc3C2=O)(c2ccc(C)cc2)CCO1 (centres undefined)	i
Cc1ccc(C(C)C)cc1OCCCCN1CCOCC1	i
CC(C)NS(=O)(=O)c1ccc(OCC(=O)Nc2ccccc2Br)cc1	i
O=C(CCN1C(=O)c2ccccc2C1=O)Nc1ccc(Br)cc1F	i
CCC(C)c1ccccc1OCCCNC1CCCC1 (centres undefined)	8.8µg/mL*
CC(C)c1ccccc1NC(=O)c1ccccc1NC(=O)C1CCCCC1	i
COC(=O)c1ccc(C(=O)OC)c(NC(=O)C2CCCCC2C(=O)O)c1 (centres undefined)	i
COc1cc(Cl)c(CNCc2ccccc2)cc1OC	i
CC(C)N1C(=O)C(O)(CC(=O)c2ccncc2)c2ccccc21 (centres undefined)	i

Six compounds picked at random from the list so far:
SMILES	Mtb H37Rv
O=C(NCc1cccnc1)c1ccc(CN2CCc3ccccc3C2)cc1	i
COc1ccccc1NC(=S)NCCN(C)C	i
CCCCOc1ccc(C(=O)NC(=S)N2CCN(c3c(F)c(F)c(F)c(F)c3F)CC2)cc1	i
COc1ccc(C(=O)Nc2ccc(S(=O)(=O)N3CCCCC3C)cc2)c(OC)c1OC (centres undefined)	i
Cc1scc(C(=O)N2CCCCCC2)c1-c1ccccc1	i
CCCc1cc(=O)[nH]c(/N=C(/NC(=O)C(C)N2C(=O)c3ccccc3C2=O)Nc2ccccc2)n1 (centres undefined)	i

(next part)
SMILES	Mtb H37Rv
CCOC(=O)Cn1c(=N)n(Cc2ccc(Cl)c(Cl)c2)c2ccccc21	6%
S=C(NNC(=S)Nc1ccc(Cl)c(Cl)c1)Nc1cccnc1	i
CC1CCN(S(=O)(=O)c2ccc(N)cc2)CC1	i
CCC(Oc1ccccc1)C(=O)Nc1ccc([N+](=O)[O-])cc1OC (centres undefined)	i
Cc1ccc(NC(=O)Nc2ccc(C)cc2C)c(C)c1	i
COc1ccc(N2C(=O)NC(=O)/C(=C\c3ccc(OC)cc3OC)C2=O)cc1	i
CCOC(=O)c1ccc(NC(=S)N2CCN(c3ccc([N+](=O)[O-])cc3)CC2)cc1	i
CCCC(=O)N1CCN(c2ccc(NC(=S)NC(C)=O)cc2Cl)CC1	i
CN(C)c1nc(Nc2nc3ccccc3[nH]2)nc(N(C)C)n1	9%
O=C(CC1(O)C(=O)N(Cc2ccccc2)c2ccc(Cl)cc21)c1ccccn1 (centres undefined)	i
NC(=O)C1CCN(C(=O)c2ccc(Br)o2)CC1	i
Cc1cccc(CNC(=O)C(=O)Nc2cccc(C(F)(F)F)c2)c1	1%

Five structures out of the list, arranged by heavy-atom count, smallest number first.
SMILES	Mtb H37Rv
Cc1cccc(NC2C=CS(=O)(=O)C2)c1C (centres undefined)	i
COc1cc(Cl)c(CNCc2ccccc2)cc1OC	i
O=C(CC1(O)C(=O)N(Cc2ccccc2)c2ccc(Cl)cc21)c1ccccn1 (centres undefined)	i
CCOC(=O)c1ccc(NC(=S)N2CCN(c3ccc([N+](=O)[O-])cc3)CC2)cc1	i
C=CCOc1cccc(C2C(C(=O)c3cc4cccc(OC)c4o3)=C(O)C(=O)N2Cc2ccco2)c1 (centres undefined)	i

Other records
SMILES	Mtb H37Rv
Cc1ccc(C)c(-c2cc(C(=O)N3CCCC3)c3cc(Br)ccc3n2)c1	i
Cc1ccc(N(CC(=O)Nc2c(C)n(C)n(-c3ccccc3)c2=O)S(=O)(=O)c2ccc(F)cc2)cc1	i
Cc1ccccc1CN(c1ccc(C(=O)Nc2c(C)cccc2C)cc1)S(C)(=O)=O	i
COc1cc(C2C(C#N)=C(SCc3ccccc3Cl)NC3=C2C(=O)CCC3)ccc1O (centres undefined)	i
O=C(NCCC12CC3CC(CC(C3)C1)C2)c1ccc(S(=O)(=O)N2CCCC2)cc1	i
CCc1ccc(NC(=O)CN(c2ccccc2)S(=O)(=O)c2ccc(C)cc2)cc1	1%
Cn1c(SCC(=O)Nc2nccs2)nnc1-c1ccc(Cl)cc1	i
CN1CCN(Cc2ccc(C#N)cc2Cl)CC1	i
CN(C)CCSc1nc(-c2cccs2)cc(-c2ccc(F)cc2)c1C#N	5.2µg/mL*
O=C(N1CCN(Cc2ccccc2)CC1)C(Cl)(Cl)Cl	i
CC(C)COc1ccc(-c2nn(-c3ccccc3)cc2C(=O)O)cc1	11%
CC1(NC(=O)Nc2cccc3ccccc23)CCS(=O)(=O)C1 (centres undefined)	i
CC1CN(C2CCN(S(=O)(=O)c3ccc(F)cc3)CC2)CC(C)O1 (centres undefined)	2%
O=C(O)c1ccc(COc2ccc(CO)cc2Br)cc1	i
CSc1nc(-c2ccccc2)ccc1C(N)=O	0%
Cc1cc(C)cc(C(=O)Nc2cc(Cl)ccc2C)c1	i
COc1ccc(C(=O)Oc2ccc3c(C)c(C)c(=O)oc3c2)cc1	i
CCC(Sc1nc(SC)ns1)C(=O)NC(CSCc1ccccc1)C(=O)OC (centres undefined)	45%
CC(=O)NC1c2ccccc2Oc2ccccc21	2%
CC(C)C(=O)NC(c1cccs1)c1cc([N+](=O)[O-])c2cccnc2c1O (centres undefined)	i
O=C(c1c(F)c(F)c(F)c(F)c1F)N1CCN(c2ccc(C(F)(F)F)cc2[N+](=O)[O-])CC1	3%
CCOC(=O)C1CCCN(C(=O)Cc2ccc(Cl)cc2)C1 (centres undefined)	i
O=C1OC(c2ccccc2)=N/C1=C/c1ccc(OC(=O)c2cccs2)cc1	i
COC(=O)c1ccccc1NC(=O)CNS(=O)(=O)c1cc(Cl)ccc1Cl	1%
Cc1ccccc1Cn1c(N2CCCCC2)nc2c1c(=O)n(C)c(=O)n2C	i
CCc1ccc2oc(C(=O)Nc3nnc(SC)s3)c(C)c2c1	i
OC(c1ccccc1)(c1ccccc1)C1CCN(C(=S)NCc2ccco2)CC1	1%
CCN(C(=O)CN1C(=O)C(=O)c2ccccc21)c1ccccc1	i
CCOC(=O)C1=C(C)NC(C)=C(C(=O)OCC)C1c1ccc(C#N)cc1	i
CC(=O)Oc1cccc(C(=O)Nc2ccc(C(=O)Nc3nccs3)cc2)c1	i
COc1c(C(=O)Nc2ccc(SC#N)cc2)ccc2ccccc12	i
CCOC(=O)c1c(NC(=S)Nc2ccc(OCC)cc2)sc2c1CC(C)(C)OC2	i
COc1ccc(N(CC(=O)Nc2cccc(C)c2C)S(=O)(=O)c2ccccc2)c(OC)c1	i
NC(=O)c1ccc(NC(=O)C2CCN(S(=O)(=O)c3ccccc3)CC2)cc1	i
Cc1cc(C)n(S(=O)(=O)c2ccc(C(C)(C)C)cc2)n1	1%
COc1cc(NC(=O)CSc2ccc(C)cc2)c(C(=O)O)cc1OC	i
O=C(NCCSc1ccc(Cl)cc1)c1ccc(CN2CCOCC2)cc1	i
COC(=O)C1=CNC=C(C(=O)OC)C1c1cccc(OC)c1	i
CCN1CCN(C(=O)c2c(C)c(-c3ccc(OC)cc3)nc3ccccc23)CC1	5%
COc1ccccc1CC(=O)O/N=C(\N)c1ccc(Cl)cc1	i
COc1cccc(C2C(C(=O)c3ccc(C)o3)=C(O)C(=O)N2CCN(C)C)c1 (centres undefined)	i
Cc1cccc(C)c1NC(=O)COc1ccc2c3c(c(=O)oc2c1)CCCCC3	i
Cc1ccc(OCCCCOc2ncnc3ccccc23)cc1	2%
O=C(NC(=S)NC12CC3CC(CC(C3)C1)C2)c1sc2ccccc2c1Cl	i
C(=C\c1nn2c(Cn3cnc4ccccc43)nnc2s1)/c1ccccc1	i
Cc1ccc(NC(=O)NNC(=O)c2cc(-c3ccccn3)nc3ccccc23)cc1Cl	i
COc1ccc(Cl)cc1NC(=O)C1=C(C)NC(=S)NC1c1ccc(N(C)C)cc1 (centres undefined)	48%
Nc1nc(-c2ccc(F)c(F)c2)cs1	i
CCOC(=O)c1conc1-c1sccc1C	i
COc1ccc(CN2CCN(c3c([N+](=O)[O-])c(=O)n(-c4ccccc4)c4ccccc34)CC2)cc1F	i
CCOc1ccc(CNc2ccc(CNc3ncn[nH]3)cc2)cc1	9%
C=CCNC(=S)Nc1ccccc1Oc1ccccc1	i
Cc1ccc(C(C)C)c(OCCCSc2ncccn2)c1	i
CN(c1ccccc1C(=O)N1CCN(C(c2ccccc2)c2ccccc2)CC1)S(C)(=O)=O	i
O=C(CSc1ccc(Cl)cc1)N=C1NC(=O)CS1	0%
CCC(C)NS(=O)(=O)c1ccc(NS(=O)(=O)c2ccc(Br)cc2)cc1 (centres undefined)	i
COc1ccc(CNn2c(C)n[nH]c2=S)cc1	i
N#C/C(=C\c1ccccc1)c1nc2ccc(Cl)cc2c(=O)[nH]1	i
Cc1ccc(NC(=O)CSc2nnc(C)n2-c2ccc(F)cc2)cc1Cl	i
CN(C)C(=O)Cn1nc(-c2ccccc2)c2ccccc2c1=O	i

(more compounds)
SMILES	Mtb H37Rv
O=S(=O)(CC(CN1CCCCC1)N1CCCCC1)c1ccccc1 (centres undefined)	i
Cc1ccc(C(=O)Nc2ccc(-c3nc4ccc(C)cc4s3)cc2)c(Cl)c1	2%
Cc1ccc2nc(/C(C#N)=C\C3CC4C=CC3C4)[nH]c2c1 (centres undefined)	?
COc1ccc(S(=O)(=O)N2CCN(C)CC2)cc1Br	i
Cc1ccc(Cl)cc1N(Cc1ccc(C(N)=O)cc1)S(=O)(=O)c1ccccc1	i
Cc1cc(=O)oc2cc(NC(=S)Nc3c(C)n(C)n(-c4ccccc4)c3=O)ccc12	i
COc1cc2c(cc1NC(=O)C(F)(F)C1(F)OC(F)(F)C(F)(F)C1(F)F)oc1ccccc12 (centres undefined)	0%
Cc1cc(=O)oc2cc(OC(=O)CCc3ccccc3)ccc12	i
COc1cccc(C(=O)N(Cc2cc3ccc(C)cc3[nH]c2=O)CC2CCCO2)c1 (centres undefined)	i
O=C1CCCC2=C1C(c1ccncc1)Nc1ccccc1N2 (centres undefined)	i
COc1ccc(OC)c(S(=O)(=O)N2CCC(C(=O)NCc3ccc(Cl)cc3Cl)CC2)c1	i
O=C(Cn1cnc2ccccc2c1=O)Nc1ccc(F)cc1F	2%

These rows are one share of the data (hit frequency here may not be typical).
